RecA intein inh = Mtb RecA intein splicing inhibitors, primary screen, biochemical, fluorescence, HTS. Protein RecA (Mycobacterium tuberculosis (strain ATCC 25618 / H37Rv)), P9WHJ3. cell-free RecA intein splicing. inhibition, %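 (about 9 µM by stock and volumes)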. 0.75% of 290,000 active. AID 2221, 2009; in the data active = inhibition above about 30%;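 also: 0% = vehicle wells and 100% = reference inhibitor control wells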
Target sequence (P9WHJ3 whole entry, looked up): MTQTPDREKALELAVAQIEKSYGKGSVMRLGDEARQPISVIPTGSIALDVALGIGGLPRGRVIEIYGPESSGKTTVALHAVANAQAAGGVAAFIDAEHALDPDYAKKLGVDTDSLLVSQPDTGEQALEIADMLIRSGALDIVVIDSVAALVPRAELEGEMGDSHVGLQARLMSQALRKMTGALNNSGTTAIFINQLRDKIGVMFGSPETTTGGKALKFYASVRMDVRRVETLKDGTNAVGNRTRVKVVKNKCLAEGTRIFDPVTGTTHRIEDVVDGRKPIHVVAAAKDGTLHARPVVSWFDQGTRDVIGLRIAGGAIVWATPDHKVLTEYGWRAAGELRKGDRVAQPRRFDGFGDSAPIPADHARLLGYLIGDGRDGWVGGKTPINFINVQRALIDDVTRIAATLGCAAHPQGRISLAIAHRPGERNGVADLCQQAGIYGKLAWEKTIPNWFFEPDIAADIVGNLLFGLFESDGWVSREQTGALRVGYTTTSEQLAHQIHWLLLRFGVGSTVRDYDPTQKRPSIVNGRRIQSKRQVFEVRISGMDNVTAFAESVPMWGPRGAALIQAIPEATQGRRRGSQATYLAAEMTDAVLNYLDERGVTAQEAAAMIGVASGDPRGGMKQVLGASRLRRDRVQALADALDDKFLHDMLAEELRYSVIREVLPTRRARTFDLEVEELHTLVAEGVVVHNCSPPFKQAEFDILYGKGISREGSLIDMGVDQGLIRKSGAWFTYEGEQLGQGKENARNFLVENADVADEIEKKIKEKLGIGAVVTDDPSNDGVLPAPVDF
Mtb bLac sens = beta-lactam sensitization of Mtb H37Rv, H37Rv. AID 434955, 2010. 0.27% of 330,000 active. inhibition, % at 25 µM. M. tuberculosis H37Rv growth with meropenem, percent inhibition; hits of this screen are not shown here;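 active = about 74% or more and at least 40 points above the plate without the antibiotic, then above 30% in a dose series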;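 also: growth measured after seven days incubation then overnight dye step; 0% = bacteria only wells and 100% = bacteria with antibiotic; twin plates without the antibiotic show which effects depend on it; some results filed as inactive read as strong as hits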
YopH PTP inh = YopH tyrosine phosphatase inhibitors, primary screen, biochemical, fluorescence Ex485/Em525; YopH tyrosine phosphatase [Yersinia enterocolitica]; 0.16% of 140,000 active; inhibition, %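 (about 10 µM by stock and volumes)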;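 active = inhibition of 50% or more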;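 also: controls were vehicle for no effect and minimum signal wells for full effect; inactives centre near -20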
Arbovirus anti = antivirals against arbovirus infection, primary screen, cell-based, full library, 10K replicate subset; arbovirus infection cell-based antiviral screen; inhibition, % at 10 µM; 0.37% of 200,000 active; AID 1251, 2008;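 active = inhibition from about 30%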;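 also: bluetongue infection of BSR cells; cell survival read as ATP light after 72 h; 0% = infected wells without compound and 100% = uninfected wells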
Mtb H37Rv = M. tuberculosis H37Rv growth inhibitors, H37Rv strain (AID 1626) | M. tuberculosis H37Rv growth inhibition; higher % means a stronger effect | one-dose inhibition, % at 10 µM; IC50 in µM for titrated hits | 0.95% of 220,000 active;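 active = confirmed in a dose series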;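 also: bacteria incubated seven days before Alamar blue readout; 0% = bacteria only wells and 100% = bacteria with antibiotic wells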
Arbovirus anti repeat = recorded beside Arbovirus anti, whose call it bears; inhibition, %; measured here: 10K subset replicate screen; many hits read low in the repeat;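 first of two repeat runs on a subset; 0% = infected and 100% = uninfected wells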
Numbers without * were called inactive; / = not tested or not shown.

SMILES	RecA intein inh	Mtb bLac sens	YopH PTP inh	Arbovirus anti	Mtb H37Rv	others
O=C(CS(=O)(=O)c1ccccc1)N1CCN(c2ccccc2)CC1	-0.8	-1	/	/	/
Cc1cc(C)c(NC(=O)Cn2c([N+](=O)[O-])cnc2C)c(C)c1	1.4	-8	/	/	-1%
CCCCN(C)CCC(=O)Nc1ccc(F)c(F)c1	0.4	-4	-17	-3	-1%
O=C(CSC1=NS(=O)(=O)c2cc(Cl)ccc2N1)Nc1ccccc1F	-1.4	1	/	/	/
Oc1ccc(Cn2ccnc2)c2cccnc12	-13	57	/	-30	-6%
CC(=O)OCC12COC3c4ccccc4OC(C)(CC1C)C3C2C (stereo not given)	3.0	-6	/	-4	-1%
Cc1ccc2nc(Cl)c(C#N)cc2c1	-0.6	0	/	13	-5%
COc1ccc(N/C(=N/c2nc(C)cc(C)n2)NC(=O)Nc2ccc(Cl)c(Cl)c2)c(OC)c1	1.6	3	-9	16	57%
CC1CC(OCC(O)C[N+]2(C)CCOCC2)CC(C)(C)C1 (stereo not given)	-0.2	-12	/	0	-3%
O=C(COc1ccc2c3c(c(=O)oc2c1)CCCC3)NCCCn1ccnc1	-1.6	6	/	/	/
O=S(=O)(c1ccc2ccccc2c1)N1CCN(C2CCN(Cc3ccccc3)CC2)CC1	-2.5	15	-15	2	10%
Cc1ccc(OCC(=O)NNC(=O)c2ccc3c(=O)n4c(nc3c2)CCC4)cc1	-3.1	-5	/	/	/
CC(C)CNC(=O)c1cc(-c2ccc3c(c2)OCO3)on1	-1.6	-4	/	/	/
CNC(=O)COc1coc(CN2CCN(c3ccccc3OC)CC2)cc1=O	-3.8	-3	/	/	/
O=C(/C=C/c1c(Cl)nc2ccccn12)N1CCCCC1	-1.3	-4	/	-7	2%
Cc1c(C)[n+](=O)c(-c2cccs2)c(C)n1[O-]	-1.3	-4	-26	-6	-15%
O=S(=O)(Nc1ccc2c(c1)OCCO2)c1cnc[nH]1	-1.0	1	-13	8	-2%
COc1cc2c(cc1OC)C(c1cc(OC)c(OC)cc1[N+](=O)[O-])N(C(C)=O)CC2 (stereo not given)	-1.0	-1	/	/	/
CCOc1cc(/C=C/c2ccc3cccc([N+](=O)[O-])c3n2)cc(Cl)c1O	12	3	0	-17	1%
COC(=O)C1(C(F)(F)F)N=C(C(F)(F)F)Nc2ccc(Cl)cc21 (stereo not given)	1.8	-5	-1	7	13%
COc1ccc(S(=O)(=O)n2nc(OC(=O)c3cccs3)cc2N)cc1	11	-4	-2	-6	-6%
NC(=S)N=Nc1c(O)[nH]c2cc(F)c(F)cc12	-4.3	6	-12	3	18%
COc1ccc(C(CC(=O)NC(C)c2ccc(-c3ccccc3)cc2)NC(C)=O)cc1 (stereo not given)	1.2	-3	/	/	/
COc1ccc(C(=O)Nc2ccc(CN3CCS(=O)(=O)CC3)cc2)cc1	-0.3	-5	/	/	-10%
CCOCc1cnc(C)nc1NCC(=O)c1c(C)[nH]c2ccccc12	1.1	7	-9	2	-7%
Cc1cccc2c1NC(=O)C21OCC(CO)([N+](=O)[O-])CO1 (stereo not given)	0.2	-9	/	/	/
CCCOc1ccc(C(=O)Nc2ccc3c(c2)OCO3)cc1	1.4	28	/	/	/
O=C(NCc1cccnc1)c1ccc(Cl)c(S(=O)(=O)N2CCCCCC2)c1	2.6	-3	/	6	3%
Cc1ccc(CNC(=O)C2CNc3cc(C)ccc3O2)cc1 (stereo not given)	-0.9	0	-15	-2	11%
O=C(NCc1nnc(SCc2ccccc2)n1-c1ccccc1)C12CC3CC(CC(C3)C1)C2	3.0	70	-26	-7	/
C=CCN1CCN(C(=O)CSc2ccccc2)CC1	1.2	-3	/	/	/
CC(C)NC(=O)CC(=O)N/N=C/c1ccccc1F	-3.9	-10	-7	-2	2%
O=C(CSc1cn(CCNC(=O)c2ccc3ccccc3c2)c2ccccc12)NCc1ccco1	7.5	2	-37	4	16%
COCCNS(=O)(=O)c1ccc2c(c1)Cc1cc(S(=O)(=O)NCCOC)ccc1-2	1.0	-4	/	/	/
CCC(C)(C)n1nnnc1C(c1ccc2ncccc2c1)N1CCCC(C)C1 (stereo not given)	4.2	2	-8	-4	10%
O=C(NCCCn1ccnc1)Nc1ccc(Cl)c(Cl)c1	0.0	2	-33	8	-4%
CCC(C)NC(=O)CNC(=S)N(Cc1ccc(F)cc1)C1CCCCC1 (stereo not given)	1.6	5	/	-3	10%
COc1cccc(NC2=NCCCCC2)c1	-0.1	-2	/	/	/
c1ccc(-c2csc3ncnc(-n4cnc5ccccc54)c23)cc1	2.6	-11	-32	-11	-1%
COC(=O)c1ccc(CSc2nc3ccccc3c(=O)n2-c2ccc(OC)c(OC)c2)o1	0.9	2	-18	15	2%

Some of these compounds in order of heavy-atom count, largest number first:
SMILES	RecA intein inh	Mtb bLac sens	YopH PTP inh	Arbovirus anti	Mtb H37Rv	others
O=C(CSc1cn(CCNC(=O)c2ccc3ccccc3c2)c2ccccc12)NCc1ccco1	7.5	2	-37	4	16%
O=C(NCc1nnc(SCc2ccccc2)n1-c1ccccc1)C12CC3CC(CC(C3)C1)C2	3.0	70	-26	-7	/
COC(=O)c1ccc(CSc2nc3ccccc3c(=O)n2-c2ccc(OC)c(OC)c2)o1	0.9	2	-18	15	2%
COc1ccc(C(CC(=O)NC(C)c2ccc(-c3ccccc3)cc2)NC(C)=O)cc1 (stereo not given)	1.2	-3	/	/	/
COc1cc2c(cc1OC)C(c1cc(OC)c(OC)cc1[N+](=O)[O-])N(C(C)=O)CC2 (stereo not given)	-1.0	-1	/	/	/
Cc1ccc(OCC(=O)NNC(=O)c2ccc3c(=O)n4c(nc3c2)CCC4)cc1	-3.1	-5	/	/	/
O=C(COc1ccc2c3c(c(=O)oc2c1)CCCC3)NCCCn1ccnc1	-1.6	6	/	/	/
O=C(NCc1cccnc1)c1ccc(Cl)c(S(=O)(=O)N2CCCCCC2)c1	2.6	-3	/	6	3%
COc1ccc(C(=O)Nc2ccc(CN3CCS(=O)(=O)CC3)cc2)cc1	-0.3	-5	/	/	-10%
O=C(CSC1=NS(=O)(=O)c2cc(Cl)ccc2N1)Nc1ccccc1F	-1.4	1	/	/	/
CC(=O)OCC12COC3c4ccccc4OC(C)(CC1C)C3C2C (stereo not given)	3.0	-6	/	-4	-1%
COC(=O)C1(C(F)(F)F)N=C(C(F)(F)F)Nc2ccc(Cl)cc21 (stereo not given)	1.8	-5	-1	7	13%
Cc1ccc(CNC(=O)C2CNc3cc(C)ccc3O2)cc1 (stereo not given)	-0.9	0	-15	-2	11%
Cc1cccc2c1NC(=O)C21OCC(CO)([N+](=O)[O-])CO1 (stereo not given)	0.2	-9	/	/	/
O=C(NCCCn1ccnc1)Nc1ccc(Cl)c(Cl)c1	0.0	2	-33	8	-4%
CCCCN(C)CCC(=O)Nc1ccc(F)c(F)c1	0.4	-4	-17	-3	-1%
NC(=S)N=Nc1c(O)[nH]c2cc(F)c(F)cc12	-4.3	6	-12	3	18%
Cc1c(C)[n+](=O)c(-c2cccs2)c(C)n1[O-]	-1.3	-4	-26	-6	-15%
Cc1ccc2nc(Cl)c(C#N)cc2c1	-0.6	0	/	13	-5%

Further results follow.
SMILES	RecA intein inh	Mtb bLac sens	YopH PTP inh	Arbovirus anti	Mtb H37Rv	others
Cc1ccc(S(=O)(=O)N(C)CC(=O)Nc2ccc(C)cn2)cc1	-1.7	1	/	/	/
O=C(COc1ccccc1Cl)Nc1ccc(S(=O)(=O)N2CCOCC2)cc1	1.0	3	/	/	/
CCOCCCNC(=O)c1c(C)[nH]c(C(=O)OCC)c1C	3.4	-2	-8	1	/
Cc1ccc2oc(C(=O)N3CCN(Cc4ncccc4C)CC3)c(C)c2c1	-0.2	88	/	/	/
COc1ccc(NC(=O)C2CCC(=O)N2)cc1 (stereo not given)	-3.2	4	-46	-4	-7%
COc1ccc(/C=C/c2nc(S(=O)(=O)c3ccccc3)c(N(C)C)o2)cc1	-4.0	4	/	/	/
CC1CCN(S(=O)(=O)c2ccc3ccccc3c2)CC1	13	1	0	2	-12%
COc1ccc(-c2oc3cc(O)c(OC)c(O)c3c(=O)c2OC)cc1	-0.5	6	/	/	1%
CCNC(=S)NNC(=O)c1cc(Br)cs1	-2.4	-3	-17	1	-3%
O=S(=O)(NC1CCCCCCC1)OCC(Cl)(Cl)Cl	8.3	0	/	/	/
COc1ccc(N(CC(=O)NC2CCCCCC2)S(=O)(=O)c2c(C)nn(C)c2C)cc1	/	3	-19	-4	-2%
CCCS(=O)(=O)N1CCC(C(=O)Oc2ccc(OC)cc2)CC1	-0.1	31	/	/	/
CC(C)(C)NC(=O)NCCc1ccccc1	1.7	-5	/	/	-7%
CN(C)c1ccc(NC(=O)CSc2nc(C3CC3)nc3ccccc23)cc1	0.6	-7	/	/	/
S=c1[nH]nc(-c2ccc3ccccc3n2)n1-c1ccccc1Cl	0.3	2	-22	7	-1%
c1cc2c(cc1C1CCCN1)OCCCO2 (stereo not given)	0.0	-6	-23	0	-3%
CCCN1C2CCCC1CC(NC(=S)NCCCOCC)C2 (stereo not given)	2.3	11	/	1	-6%
COc1ccc(NC(=O)c2cccc3c2C(=O)N(CC2CCCO2)C3)cc1OC (stereo not given)	1.1	-5	/	/	/
CCN(CC)S(=O)(=O)c1cccc(C(=O)N[C@H](C(=O)OCC(=O)Nc2ccccc2)C(C)C)c1	2.0	-5	-1	-1	-2%
COc1cc(C=O)ccc1OCc1ccncc1	0.0	-7	/	/	/
CCCn1c(SCc2ccccn2)nc2c1c(=O)n(C)c(=O)n2C	-0.3	-6	-24	6	6%
O=C1C2C3c4ccccc4C(c4ccccc43)C2c2nc3ccccc3n21 (stereo not given)	0.8	2	-23	-1	-4%
Cc1cc(C)cc(N(C(=O)c2snc(C(N)=O)c2N)C(C(=O)NCC2CCCO2)c2ccc(C)o2)c1 (stereo not given)	-3.2	2	/	/	/
CCOc1ccc(N2CC(C(=O)Nc3ccc4c(c3)OCO4)CC2=O)cc1 (stereo not given)	0.3	-5	/	8	2%
Cc1ccc(S(=O)(=O)NC(N)=NCCc2ccc(Cl)cc2)cc1C	3.0	6	-27	7	1%
Brc1ccc2ncnc(Nc3ccc(N4CCOCC4)cc3)c2c1	15	23	5	3	75%	Arbovirus anti repeat=-7
CN(C)c1ccc(/C=N/NC(=O)C[n+]2ccccc2)cc1	1.7	-6	/	/	/
COc1cc(C(c2c(O)nc(SC)[nH]c2=O)c2c(O)nc(SC)[nH]c2=O)cc(OC)c1OC	-3.2	4	/	/	/
O=C(Cn1c(=O)oc2cc(S(=O)(=O)N3CCCC3)ccc21)NC1CCCCC1	-1.3	9	/	/	/
CCOC(=O)C1(C)NC(c2ccccc2F)C2C(=O)N(CC)C(=O)C21 (stereo not given)	-4.3	-8	/	1	-3%
COc1ccc(NC(=S)N(CCC(C)C)C(C)c2ccncc2)cc1 (stereo not given)	-0.6	4	/	/	5%
CCNC(=S)Nc1ccc(N2CCCCC2)cc1	0.2	1	/	-1	-1%
N#Cc1ccc(OCCN2C(=O)NC3(CCSC3)C2=O)cc1 (stereo not given)	/	-7	-39	0	-10%	Arbovirus anti repeat=7
CC1CCN(C(=O)CN2C(=O)c3ccccc3S2(=O)=O)CC1	-0.8	-3	-43	-4	-2%

Only part of the results is shown; the hit share may differ from the screen's.
